# Assay outcomes (PubChem)
# VACV mCherry inh – vaccinia inhibition (mCherry reporter) | Vaccinia virus mCherry reporter infection, fluorescence; about a quarter of the inactives have no number | Potency, µM (doses to about 36.5 µM), for the others: at the highest dose activity change, negative = inhibition, actives largely listed as inhibitors | hit rate 0.63% among 310,000 | AID 720579; active = well fitted inhibition curve with a large enough effect; inconclusive = small, poorly fitted or top-dose-only effect; inactive = no such curve, though single readings can be large or run the other way; tested in A549 cells; further: nearly all actives have a fitted effect of over 35% in size; inactives centre near -10
# VACV Venus inh – vaccinia inhibition (Venus reporter); Vaccinia virus Venus reporter expression, fluorescence; Potency, µM (top dose mostly 36.5 µM), without a hit: at the top dose activity change, negative = inhibition, usual class: inhibitors; hit rate 0.46% among 330,000; active means well fitted inhibition curve with a large enough effect; inconclusive means small, poorly fitted or top-dose-only effect; inactive means no such curve, though single readings can be large or run the other way; tested in A549 cells; further: nearly all actives have a fitted effect of over 30% in size; inactives centre near -10
# Numbers without * were called inactive; i = inactive; ? = inconclusive; nt = no result given; [ ] = dose if it differs, or a comment. On the % scale 0 is the no-effect control and ±100 the full control effect; potency means the concentration at half of the fitted maximal effect.
# Results follow in this order: VACV mCherry inh, VACV Venus inh
Cc1nc2cc(S(=O)(=O)C(F)(F)F)ccc2s1
 : -12%, -9%
Cc1ccc(NC(=O)NCCCl)cc1S(=O)(=O)N1CCOCC1
 : -6%[7.34 µM], -6%[7.34 µM]
CC(C)(C)OC(=O)N1CCC(C(=O)Nc2cccc(C(=O)NCCc3ccccc3)c2)CC1
 : -14%, -17%
CCC1CCCCN1C(=O)CCNC(=O)Cn1cnc2ccccc2c1=O (configuration not stated)
 : -9%, 0%
Cc1cccc(OCC(=O)Nc2nnc(S(=O)(=O)N3CCC(C)CC3)s2)c1
 : -6%, 1%
Cc1ccc(S(=O)(=O)N2CCCc3cc(NS(=O)(=O)c4ccccc4)ccc32)cc1
 : -4%, -12%
CCC(C)(C)NC(=O)c1cc([N+](=O)[O-])ccc1N1CCOCC1
 : -3%, -7%
COC(=O)c1ccccc1OCCOCCOc1cccc2cccnc12
 : -9%, -7%
Cc1ccccc1NC(=O)Nc1cc(S(N)(=O)=O)ccc1C
 : -6%, 1%
O=C(CCc1ccc(O)cc1)c1c(O)cc(O)cc1O[C@H]1OC(CO)C(O)C(O)C1O (some centres not stated)
 : -1%, -11%
Cc1ccc(S(=O)(=O)N(C)C)cc1NC(=O)C(C)OC(=O)CC1CC2CCC1C2 (configuration not stated)
 : -4%, -20%
CC1=C(C(=O)OCc2ccc3c(c2)OCO3)C(c2ccc(O)c([N+](=O)[O-])c2)NC(=O)N1 (configuration not stated)
 : i, -14%
N#C/C(=C(/O)CSc1n[nH]c(N)n1)c1nc2ccccc2[nH]1
 : -23%, 8%
Cc1cc(N2CCOCC2)nc(N)n1
 : -11%, -13%
O=C(NCc1cccnc1)c1noc2c1CCCC2
 : -11%, -5%

# Results follow in this order: VACV mCherry inh, VACV Venus inh
CC(C)(C)c1cc(C(C)(C)C)c2oc(=O)c(-c3nc4ccc(C(=O)O)cc4[nH]3)cc2c1
 : -8%[7.34 µM], -9%[7.34 µM]
COc1ccc(CNc2ncnc3sccc23)cc1
 : i, -18%
COc1ccc(-c2[nH]c(-c3ccc(Cl)cc3)nc2SCC(=O)NCC2CCCO2)cc1 (configuration not stated)
 : -17%, -18%
Cc1ccc(S(=O)(=O)N2CCN(C(=O)COC(=O)/C=C/c3ccccc3F)CC2)c(C)c1
 : -12%, -3%
COc1ccc(-n2cc(CN3CCCC3)c(-c3cccc(F)c3)n2)cc1
 : -25%, -27%
COc1cc(C(=O)NNC(=O)c2ccc(S(=O)(=O)N3CCCCC3)cc2)cc(OC)c1OC
 : i, -3%
N#Cc1ccc(CN2CCN(C(=O)c3cccc(S(=O)(=O)N4CCCCCC4)c3)CC2)cc1
 : 0%, -10%
COc1cc(C(=O)OCC(=O)NCCC2=CCCCC2)ccc1OCC(C)C
 : -6%, -6%
c1ccc(-c2[nH]ncc2CN2CCN(Cc3ccc4c(c3)OCO4)CC2)cc1
 : ?, -6%
Cc1nc(NC(=O)c2ccc(Br)s2)sc1C(=O)N(C)C
 : -11%, -10%
Cc1cccc(NC(=O)c2cccc(S(=O)(=O)N(C)C3CCCCC3)c2)n1
 : -12%, -17%
Cc1oc(-c2cccs2)nc1CN1CCN(Cc2ccc(F)c(F)c2)C(CCO)C1 (configuration not stated)
 : i, -12%
C/C(=N\NC(=O)C1CCCN(S(=O)(=O)c2ccccc2)C1)c1ccccn1 (configuration not stated)
 : ?, ?
OCC(CO)(CO)NCc1ccc(-c2ccccc2)cc1
 : -19%, -19%
COc1ccc2c(c1)c(CCN1C(=O)c3ccccc3C1=O)cn2C(=O)c1ccco1
 : -7%, -11%

# Results follow in this order: VACV mCherry inh, VACV Venus inh
O=C(Nc1c(Br)cc2c(c1Br)Cc1ccccc1-2)C(Cl)Cl
 : i, -3%
CC1=C(C(=O)Nc2ccccc2)C(c2ccc(C)o2)N2C(=O)CSC2=N1 (configuration not stated)
 : nt, 11%
Cc1ccc(S(=O)(=O)N(C)Cc2ccc(C(=O)N/N=C3\CCCC(=O)C3)cc2)cc1
 : -4%, -7%
FC(F)(F)c1ccc2c(c1)n(Cc1ccccc1)c1[n+]2CCCCC1
 : i, -6%
CC1CC=CCC12C(=O)NC(=S)NC2=O (configuration not stated)
 : i, -3%
COC(=O)CNc1nc(OC)nc(N(C)C)n1
 : nt, -28%
Cc1nn(C)cc1CNC(=O)c1cc2n(n1)C(C(F)(F)F)CC(c1cccs1)N2 (configuration not stated)
 : i, -7%
CCc1nc(NCC2CC2)c2nnn(Cc3ccccc3)c2n1
 : -7%, -14%
Cc1onc(-c2ccccc2)c1C(=O)N/N=C/c1cc(Br)c(O)c(Br)c1
 : ?, ?
O=C(Nc1cc(Cl)ccc1Cl)c1ccco1
 : -4%, -22%
COC(=O)[C@]1(C)N[C@H](CN(C)C(C)=O)[C@@H]2C(=O)N(Cc3ccccc3)C(=O)[C@@H]21
 : -12%, 5%
COc1cc(-c2nc(=S)[nH][nH]2)cc(OC)c1OC
 : i, -5%
CCn1nccc1C(=O)Nc1ccccc1OC
 : i, -11%
CC(NC(=O)c1c(O)c2ccccc2n(C)c1=O)c1ccccc1 (configuration not stated)
 : ?, -22%
O=c1[nH]c(=O)n(C2CCCCC2)c(O)c1C1NCCc2ccccc21 (configuration not stated)
 : nt, -25%

# Another view of part of the listing above:
OCC(CO)(CO)NCc1ccc(-c2ccccc2)cc1
  VACV mCherry inh: -19%	VACV Venus inh: -19%

COc1ccc2c(c1)c(CCN1C(=O)c3ccccc3C1=O)cn2C(=O)c1ccco1
  VACV mCherry inh: -7%	VACV Venus inh: -11%

O=C(Nc1c(Br)cc2c(c1Br)Cc1ccccc1-2)C(Cl)Cl
  VACV mCherry inh: i	VACV Venus inh: -3%

CC1=C(C(=O)Nc2ccccc2)C(c2ccc(C)o2)N2C(=O)CSC2=N1 (configuration not stated)
  VACV mCherry inh: nt	VACV Venus inh: 11%

# Exported comma-delimited: entries from further up
Compound,VACV mCherry inh,VACV Venus inh
CC1=C(C(=O)OCc2ccc3c(c2)OCO3)C(c2ccc(O)c([N+](=O)[O-])c2)NC(=O)N1 (configuration not stated),i,-14%
N#C/C(=C(/O)CSc1n[nH]c(N)n1)c1nc2ccccc2[nH]1,-23%,8%
Cc1cc(N2CCOCC2)nc(N)n1,-11%,-13%
O=C(NCc1cccnc1)c1noc2c1CCCC2,-11%,-5%
CC(C)(C)c1cc(C(C)(C)C)c2oc(=O)c(-c3nc4ccc(C(=O)O)cc4[nH]3)cc2c1,-8%[7.34 µM],-9%[7.34 µM]
COc1ccc(CNc2ncnc3sccc23)cc1,i,-18%

# The list goes on:
# Results follow in this order: VACV mCherry inh, VACV Venus inh
CCOC(=O)[C@H]1[C@H]2COc3ccc(C)cc3[C@@H]2N2C(=O)[C@@H](C)NC(=O)[C@@]12C
 : -3%, -6%
CC(C)[C@H](NC(=O)[C@@H]1Cc2c([nH]c3ccccc23)C2c3ccccc3C(=O)N21)C(=O)N1CCC[C@@H]1C(=O)O (some centres not stated)
 : -2%, 2%
CC(=O)Nc1ccc(NC(=O)C(C)c2cccc(C(=O)c3ccccc3)c2)cc1 (configuration not stated)
 : -14%, -1%
O=C(NC1CCCCCCC1)c1cnccn1
 : i, -27%
CCOc1ccc(NC(=O)Nc2c[nH]c(=O)[nH]c2=O)cc1
 : 0%, 7%
Cc1ccccc1C(=O)Nc1nnc(CC(=O)N/N=C/c2ccncc2)s1
 : i, -10%
CC1(C)CC(=O)C2=C(C1)NC(Nc1nc3ccccc3o1)=NC2c1ccccc1Cl (configuration not stated)
 : 17%, -10%
Cc1ccc(C)c(NC(=O)C2CCCN2C(=O)NC2CCCCC2)c1 (configuration not stated)
 : i, -6%
COc1ccc(N2Cc3cccc(C(=O)Nc4ccc(Cl)cc4)c3C2=O)cc1
 : -24%, -28%
COc1ccc(-c2noc(CCCC(=O)NCC3CCCO3)n2)cc1 (configuration not stated)
 : i, 7%
Cc1ccc(C)c(NC(=O)C(c2ccccc2)N2Cc3ccccc3C2=O)c1 (configuration not stated)
 : -14%, -2%
Cc1nn(C(=O)c2nn(C)cc2Cl)c(C)c1Br
 : -23%, -17%
Cc1cnc(SCCN2CCOCC2)nc1C1CCCN(C(=O)c2cccc3c(C)c(C)[nH]c23)C1 (configuration not stated)
 : -18%, 0%
CCc1cccc(NC(=O)C2CC2c2ccccc2)c1 (configuration not stated)
 : i, -8%
C=C(CC1CC(O)[C@]2(C)OC3CC4OC5C[C@]6(C)O[C@]7(C)CCC8OC9C[C@]%10(C)OC%11C(C)=CC(=O)OC%11CC%10OC9C[C@@H](C)C8OC7CC6O[C@]5(C)C/C=C\C4OC3CC2O1)C(=O)O (some centres not stated)
 : -9%, -4%

# Of the compounds above, these contain a cyano group.
# Results follow in this order: VACV mCherry inh, VACV Venus inh
N#C/C(=C(/O)CSc1n[nH]c(N)n1)c1nc2ccccc2[nH]1
 : -23%, 8%
N#Cc1ccc(CN2CCN(C(=O)c3cccc(S(=O)(=O)N4CCCCCC4)c3)CC2)cc1
 : 0%, -10%

# (next part)
# Results follow in this order: VACV mCherry inh, VACV Venus inh
CCC(C)(C)NC(=O)CN(C(=O)CNS(=O)(=O)c1ccccc1)c1ccccc1
 : nt, -26%
CCc1nnc(NC(=O)C2CC(=O)N(Cc3ccccc3)C2)s1 (configuration not stated)
 : -10%, -21%
Cc1ccc(S(=O)(=O)N(Cc2nc(-c3ccc(Cl)cc3)no2)C2CCCCC2)cc1
 : -5%, -14%
OCCNc1ncnc2c1ncn2[C@H]1CN(Cc2cccs2)C[C@@H](CO)O1
 : -10%, 15%
COc1ccc(CNC(=O)c2ccc3c(c2)N(Cc2ccc(C)cc2)CCS3)cc1
 : -10%, -7%
CCOC(=O)c1cccc(Nc2cc(C)nc(C)n2)c1
 : -12%, -8%
CCC(=O)Nc1ccc(NC(=O)c2ccc3c(c2)OCO3)cc1
 : nt, -7%
COc1ccc2c(c1)OCC(Cc1ccc(OC)c(O)c1)C2=O (configuration not stated)
 : -26%, -16%
c1cc(OCCN2CC2)ccn1
 : -22%, -10%
CC(C)C[C@H](NC(=O)c1nc[nH]c1C(=O)NC1CCNCC1)C(=O)OCc1ccccc1
 : i, 3%
COc1ccc(CN2CC(=O)N3[C@H]4c5ccccc5OC[C@@H]4[C@H](c4ccccc4)[C@]3(C)C2=O)cc1
 : -14%, -16%
Cc1ccc(/C=N/N2C(=O)c3ccccc3NC2c2ccc(C)cc2)cc1 (configuration not stated)
 : i, -16%
COc1ccc(NC(=O)COC(=O)C23CC4CC(CC(Cl)(C4)C2)C3)c(OC)c1
 : 0%, -3%
CN(C1=NC(=O)C(CC(=O)Nc2ccc(Br)cc2)S1)c1ccc(O)cc1 (configuration not stated)
 : 2%, 11%
CCCn1c2ccccc2c2nnc(SCc3[nH]c(=O)[nH]c3C(=O)CCCCC(=O)OCC)nc21
 : i, -11%

# Results follow in this order: VACV mCherry inh, VACV Venus inh
Cc1ccc(NC(=O)C2(C)CCN2C(C)C)cc1C (configuration not stated)
 : 38%[activator], -2%
CC(C)(C)c1ccc(OCc2ccc(C(=O)Nc3cccnc3)o2)cc1
 : -26%, -18%
COc1ccc(Br)cc1CNC(=O)CN1CCSc2ccccc21
 : -7%, -2%
Cc1ccccc1OCC(=O)O/N=C(\N)Cc1ccc(Cl)cc1
 : nt, 6%
CC(C)(C)OC(=O)NCC(=O)NCC(=O)OCc1ccccc1
 : nt, -23%
O=C(Oc1ccc2ccc(O)cc2c1)c1ccccc1Cl
 : -8%, -14%
CO[C@H]1[C@H](NC(=O)c2ccsc2)c2ccccc2C12CCN(Cc1c(O)ccc3ccccc13)CC2
 : -11%, 4%
CCc1noc(-c2ccc(N3CCCCC3)c([N+](=O)[O-])c2)n1
 : -11%, -6%
CC1(C)C(O)CC(O)[C@]2(C)C1CC(O)[C@]1(C)C2CC[C@@]2(C)C(c3ccoc3)OC(=O)C3O[C@]312 (some centres not stated)
 : -22%, -17%
COC(=O)c1nccc2c1[nH]c1ccccc12
 : i, -6%
CC(=O)NN1C(=O)/C(=C/c2ccc(Br)o2)SC1=S
 : 179%[activator], 62%[activator]
COc1ccc(CN(C)CC(=O)Nc2cc(OC)c([N+](=O)[O-])cc2C)c(OC)c1
 : -8%, -26%
CCN(CC)c1ccc(NC(=O)c2cnn3c(C(F)F)cc(-c4ccccc4)nc23)cc1
 : -4%[7.34 µM], -16%[7.34 µM]
CCN(CC(=O)Nc1c(F)cccc1F)C(=O)c1ccc(OCC(=O)N2CCOCC2)c(OC)c1
 : -22%, -11%
CN(CCc1ccccn1)c1ncnc2[nH]ncc12
 : i, -18%

# Results follow in this order: VACV mCherry inh, VACV Venus inh
CC(=O)c1ccc(NC(=O)C2=CC(c3ccc4c(c3)OCO4)=NS(=O)(=O)N2C)cc1
 : 0%, 2%
CCc1nc2c(OCCOC)cccn2c1N(C)C(=O)c1ccco1
 : 17%, 10%
O=C(CC1CCCCC1)NCc1ccccc1
 : i, -5%
Cc1ccc(-c2nc(N)n(C(=O)Cc3ccccc3)n2)cc1
 : nt, -8%
[O-]/[N+](=N\Nc1ccc(Cl)cc1)c1ccccc1
 : ?, -2%
COc1ccc(S(=O)(=O)N2CCC(C(=O)NN3CCCCC3)CC2)cc1
 : i, -5%
O=C(O)CN1C(=O)CCS(=O)c2ccccc21 (configuration not stated)
 : 25%, -8%
CCN(CC)CCNC(=O)C12CC3CC(C)(CC(C)(C3)C1)C2
 : -14%, -26%
Cc1cc(C)c(OCC(=O)OC(C)C(=O)N2CCc3ccccc32)c(C)c1 (configuration not stated)
 : -16%, -2%
O=C(Nc1cccc(/C=C/c2ccccn2)c1)c1ccc(-n2cncn2)c([N+](=O)[O-])c1
 : 14µM*, ?
COc1ccc2nc(NC(=O)CSc3nnc(N)s3)sc2c1
 : i, -8%
N#C/C(=C\c1c(N2CCCCC2)nc2ccccn2c1=O)C(=O)NCc1ccco1
 : -14%, -21%
